Mtb betalactam: beta-lactam sensitization of Mtb H37Rv, H37Rv; M. tuberculosis H37Rv growth with meropenem, percent inhibition; hits of this screen are not shown here; inhibition, % at 25 µM; 0.27% of 330,000 active;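 active means about 74% or more and at least 40 points above the plate without the antibiotic, then above 30% in a dose series; inconclusive means first-round hits that could not be retested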;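 further: growth measured after seven days incubation then overnight dye step; 0% = bacteria only wells and 100% = bacteria with antibiotic; twin plates without the antibiotic show which effects depend on it; some results filed as inactive read as strong as hits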
YopH inh: YopH tyrosine phosphatase inhibitors, primary screen, biochemical, fluorescence Ex485/Em525. YopH tyrosine phosphatase [Yersinia enterocolitica]. inhibition, %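 (about 10 µM by stock and volumes)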. 0.16% of 140,000 active. AID 898, 2007;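 active means inhibition of 50% or more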;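 further: controls were vehicle for no effect and minimum signal wells for full effect; inactives centre near -20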
Arbovirus anti: antivirals against arbovirus infection, primary screen, cell-based, full library, 10K replicate subset | inhibition, % at 10 µM | arbovirus infection cell-based antiviral screen | 0.37% of 200,000 active;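 active means inhibition from about 30%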;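 further: bluetongue infection of BSR cells; cell survival read as ATP light after 72 h; 0% = infected wells without compound and 100% = uninfected wells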
Mtb H37Rv: M. tuberculosis H37Rv growth inhibitors, H37Rv strain (AID 1626); M. tuberculosis H37Rv growth inhibition; higher % means a stronger effect; inhibition, % at 10 µM, or IC50 in µM where a hit was titrated; 0.95% of 220,000 active;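 active means confirmed in a dose series; inconclusive means inhibition above 80% but not taken into the dose series; inactive means below 80% or under 30% at every dose of the series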;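 further: bacteria incubated seven days before Alamar blue readout; 0% = bacteria only wells and 100% = bacteria with antibiotic wells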
RecA intein inh: Mtb RecA intein splicing inhibitors, primary screen, biochemical, fluorescence, HTS | Protein RecA (Mycobacterium tuberculosis (strain ATCC 25618 / H37Rv)), P9WHJ3 | cell-free RecA intein splicing | inhibition, %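 (about 9 µM by stock and volumes)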 | 0.75% of 290,000 active; in the data active means inhibition above about 30%; inconclusive means no clear call, values can overlap the other calls;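 further: 0% = vehicle wells and 100% = reference inhibitor control wells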
Target sequence (P9WHJ3 whole entry, looked up): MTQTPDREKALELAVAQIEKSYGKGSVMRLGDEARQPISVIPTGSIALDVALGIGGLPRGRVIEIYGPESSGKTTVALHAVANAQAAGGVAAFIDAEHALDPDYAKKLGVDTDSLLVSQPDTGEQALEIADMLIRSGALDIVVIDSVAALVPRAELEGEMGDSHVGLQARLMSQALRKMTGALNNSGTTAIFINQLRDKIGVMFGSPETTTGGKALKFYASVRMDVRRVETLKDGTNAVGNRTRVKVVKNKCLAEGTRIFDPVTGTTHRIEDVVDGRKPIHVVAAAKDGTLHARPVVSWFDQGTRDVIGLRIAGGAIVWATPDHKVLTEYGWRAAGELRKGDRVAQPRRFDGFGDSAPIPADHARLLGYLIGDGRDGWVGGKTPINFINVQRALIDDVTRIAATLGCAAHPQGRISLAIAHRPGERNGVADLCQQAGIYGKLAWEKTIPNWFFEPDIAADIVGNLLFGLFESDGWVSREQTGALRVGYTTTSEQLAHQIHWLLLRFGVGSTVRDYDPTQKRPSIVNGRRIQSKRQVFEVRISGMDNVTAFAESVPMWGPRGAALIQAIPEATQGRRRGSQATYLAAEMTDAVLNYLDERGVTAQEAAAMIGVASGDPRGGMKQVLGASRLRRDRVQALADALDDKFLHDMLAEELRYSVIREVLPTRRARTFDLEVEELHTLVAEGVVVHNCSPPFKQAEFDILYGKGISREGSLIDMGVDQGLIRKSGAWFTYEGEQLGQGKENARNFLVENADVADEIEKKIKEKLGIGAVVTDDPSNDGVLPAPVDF
Arbovirus anti repeat: second read-out of Arbovirus anti, no call of its own (marks repeat the call); inhibition, %; measured here: 10K subset replicate screen; many hits read low in the repeat;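 first of two repeat runs on a subset; 0% = infected and 100% = uninfected wells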
Active calls of the source: *; u = inconclusive; x = no result given. Not all compounds are listed; count on the stated rates, not on these rows.

SMILES	Mtb betalactam	YopH inh	Arbovirus anti	Mtb H37Rv	RecA intein inh	others
O=C(Cn1cccc1C(=O)c1ccccc1)NCCCN1CCc2ccccc2C1	1.5	x	5.1	1.0%	0.0
O=C(Nc1ccccc1N1CCN(c2ccccc2)CC1)C12CC3CC(CC(C3)C1)C2	-4.6	-32.3	-4.7	-0.6%	2.7
CSCCC1NC2(C(=O)Nc3c(Cl)cccc32)[C@@H]2C(=O)N(C3CCCC3)C(=O)[C@H]12 (some centres not stated)	-3.8	-38.1	7.8	-6.6%	-1.1
Cc1c(Cl)cccc1NC(=O)CSc1nncn1-c1ccccn1	-2.8	x	x	x	0.2
CCCc1n[nH]c(=O)[nH]1	-16.6	-25.9	6.7	4.4%	-0.7
O=S(=O)(c1ccc(OCC(O)CN2CCN(c3ccccc3)CC2)cc1)N1CCOCC1 (configuration not stated)	6.9	-21.3	3.7	-1.7%	-0.4
CCOC(=O)c1cn[nH]c1NC(=S)Nc1ccc(Cl)cc1	4.0	x	x	-1.9%	0.4
O=C(CN1C(=O)/C(=C/c2ccccc2)SC1=S)NC1C=CS(=O)(=O)C1 (configuration not stated)	-1.6	x	x	x	1.8
CCOC(=O)c1ccc(NC(=O)CN2CCN(C(=O)C3CCCO3)CC2)cc1 (configuration not stated)	-10.8	x	x	x	-4.9
CCOC(=O)c1ccc(NC(=O)Cn2nnc(-c3ccccc3)n2)cc1	-6.0	-28.4	38.6*	u	-1.2
Cc1ccc(NC(=O)CN(C)C(=O)Cc2ccccc2F)cc1	8.0	x	x	x	0.3
Cc1cc(NC(=O)c2cc(C(C)C)on2)nn1Cc1ccc(Cl)cc1	-6.2	-30.5	13.1	4.1%	7.4
Cc1c(C(=O)NN2CCOCC2)cccc1[N+](=O)[O-]	-6.2	x	x	x	-0.2
CCc1c2ccccc2nn1-c1ccccc1C(=O)C(C)=O	1.9	x	x	x	0.7
Cc1ccc(-c2c(C)n([O-])c3c([n+]2=O)CCCC3)o1	-4.5	-9.9	-8.1	1.0%	1.9
Cc1ccc(C2(c3ccc(C)cc3)CC2C(=O)NC(C)C)cc1 (configuration not stated)	1.1	x	x	x	-1.5
COc1cc(CCC(C)=O)ccc1OC(=O)c1c(F)cccc1Cl	-8.2	x	x	-4.6%	0.0
CS(=O)(=O)N(CC(=O)NC1CC1)c1cccc(F)c1	-0.6	1.7	-5.1	-5.2%	-2.2
Cc1ccc(C(=O)Nc2ccsc2C(=O)O)cc1	5.4	x	x	x	0.9
CC(C)(C)NC(=S)N1CCC(C(=O)c2ccc(Cl)cc2)CC1	2.6	x	x	x	5.3
COc1ccc(C(=O)NNC(=S)NC(=O)c2ccco2)cc1	95.8	-26.9	-25.4	u	-0.3
CCOC(=O)C1C(c2cccc([N+](=O)[O-])c2)C2C(=O)NN=C2CC1(C)O (configuration not stated)	-9.5	x	12.5	-2.8%	-1.8
O=C(Nc1ccc(CN2CCOCC2)cc1)c1ccc(Cl)cc1	3.3	x	x	x	-0.3
O=C(COc1ccccc1)NNC(=O)c1cccs1	6.8	-14.9	4.2	-5.3%	-4.0
CN(C(=O)CSc1nnc(-c2cccs2)o1)C1CCS(=O)(=O)C1 (configuration not stated)	-3.4	x	-1.8	5.7%	x
CCOC(=O)c1c(C)[nH]c(C)c1S(=O)(=O)N(C)CC(=O)NCc1ccc(C)cc1	0.0	x	x	x	-3.1
CCCc1ccc2oc(C(=O)N(C)CCn3ccnc3C)c(C)c2c1	0.1	x	x	x	2.7
NC(=O)C1CCN(C(=O)CCC(=O)N2CCOc3ccc(Cl)cc32)CC1	-2.3	x	x	x	-0.1
CC(C)c1ccc(CNc2ccc3c(c2)ncn3C)cc1	5.3	x	x	x	7.6
COc1cc(C(CC(=O)N2CCCC2)c2c(OC)cc(OC)c3c(-c4ccccc4)cc(=O)oc23)cc(OC)c1OC (configuration not stated)	26.9	x	x	-0.2%	11.1
COc1cccc(NC(=O)Cn2c3ccc(F)cc3c3nc4n(c(=O)c32)CCCS4)c1	7.0	x	x	x	1.2
CN1C(=O)N(C)C(=O)C2(Cc3cc(NC(=O)c4ccccc4)ccc3N3CCCC32)C1=O (configuration not stated)	5.2	x	x	x	-7.9
CCCc1cc(=O)[nH]c(SCC(=O)Nc2cccc3ccccc23)n1	2.3	x	x	x	-0.3
O=c1c2ccccc2[nH]c(=S)n1CCCN1CCN(C2CCCCC2)CC1	-2.7	-28.0	-10.3	7.0%	x
COc1ccccc1CNC(=O)Cc1ccc(C)cc1	2.6	x	-2.1	5.6%	0.3
Cc1ccc(N=Nc2c(N)[nH]n3c(=O)cc(C)nc23)cc1	1.6	-44.0	-5.8	77.0%	9.0
Cc1cc(NC(=O)CSc2nc(-c3ccccc3Cl)nc3c2c(=O)n(C)c(=O)n3C)no1	-3.7	x	-9.2	-3.3%	0.1
COc1ccc(S(=O)(=O)NC2CC3CCC2C3)cc1Cl (configuration not stated)	-3.7	-31.9	-3.0	0.5%	1.9
O=C(O)Cn1nnc(-c2cccs2)n1	-4.2	-26.7	-1.9	x	-2.5
CCN(CC)c1ccc(NC(=S)Nc2ccc(F)cc2)cc1	x	x	3.9	14.3%	0.1
Cc1ccc(-c2nn(-c3ccccc3)cc2C(=O)NCC2CCCO2)cc1 (configuration not stated)	0.0	x	x	x	2.6
Cc1ccc(-n2nc3c(=O)n(CCCC(=O)NC4CCC(C)CC4)nc(C)c3c2C)cc1 (configuration not stated)	7.2	x	x	x	0.4
COc1ccc(C(C(=O)NC2CCCCC2)N(C(=O)c2cccs2)c2ccc3c(c2)OCO3)cc1 (configuration not stated)	4.5	-50.9	-0.1	-7.1%	-9.2
C=C1CCN([C@@H](Cc2ccccc2)C(=O)NCc2ccccc2)S(=O)(=O)c2ccccc21	-20.9	x	x	-3.2%	3.8
NNC(=O)CCN1CCCCC1	-8.8	x	-2.6	1.4%	1.0

Retrieved by structure from the list above (three):
SMILES	Mtb betalactam	YopH inh	Arbovirus anti	Mtb H37Rv	RecA intein inh	others
COc1ccccc1CNC(=O)Cc1ccc(C)cc1	2.6	x	-2.1	5.6%	0.3
COc1ccc(S(=O)(=O)NC2CC3CCC2C3)cc1Cl (configuration not stated)	-3.7	-31.9	-3.0	0.5%	1.9
CCCc1cc(=O)[nH]c(SCC(=O)Nc2cccc3ccccc23)n1	2.3	x	x	x	-0.3

New compounds follow
SMILES	Mtb betalactam	YopH inh	Arbovirus anti	Mtb H37Rv	RecA intein inh	others
COc1ccccc1/C=C1\SC(=S)N(CCC(=O)Nc2cc(C)on2)C1=O	89.7	x	x	x	-0.9
CCOC(=O)N1CCN(Cc2nc(-c3ccc(Cl)cc3)no2)CC1	-3.1	-7.0	25.4	14.3%	2.3
Cc1cc(C(=O)Cn2cnc3ccccc3c2=O)c(C)n1C1CC1	-0.8	x	x	x	2.5
O=C(Nc1cc(S(=O)(=O)Nc2ccc(Cl)cc2)ccc1N1CCCCC1)c1ccc(F)cc1Cl	7.1	-15.8	-16.5	12.2%	-4.2
CCN(CC)CCNC(=O)C(C)c1nn(C)c(=O)c2ccccc12 (configuration not stated)	-10.9	-2.6	8.4	-6.3%	1.0
Fc1ccc(OCc2nc(-c3cccs3)no2)cc1	10.1	x	-2.7	-2.5%	8.7
O=C1C=CC(=O)N1c1ccc(I)cc1Cl	-5.1	x	x	x	3.8
Cn1c(=NC(=O)CS(=O)(=O)c2ccccc2)sc2cc([N+](=O)[O-])ccc21	-2.6	x	x	x	-0.4
Cc1cc(O)cc(=O)n1CCc1ccccc1	4.0	x	x	x	0.0
CCOC(=O)N1CCN(Cc2cn3ccccc3n2)CC1	-4.5	-1.7	1.2	-6.6%	1.4
CCn1c(=O)n(CC)c2cc(S(=O)(=O)N3CCC(c4ccccc4)CC3)ccc21	1.9	-31.8	1.7	-2.1%	3.9
COc1ccc(/C=C2\SC(=S)N(NS(=O)(=O)c3ccccc3)C2=O)c(OC)c1	-2.4	x	x	x	-1.2
COCCNC(=O)/C(C#N)=C\c1ccc(CNC(=O)C(=O)Nc2ccc(C)c(C)c2)o1	-2.2	x	-2.8	-19.0%	-0.2
CC1(C)OC(=O)C(=Cc2ccc(-c3ccc(S(N)(=O)=O)cc3)o2)C(=O)O1	-4.0	x	4.5	-5.6%	-6.8
CN(c1ccccn1)c1ncnc2[nH]ncc12	1.6	x	x	-0.8%	0.7

Continued; the last 5 above are carried over.
SMILES	Mtb betalactam	YopH inh	Arbovirus anti	Mtb H37Rv	RecA intein inh	others
CCn1c(=O)n(CC)c2cc(S(=O)(=O)N3CCC(c4ccccc4)CC3)ccc21	1.9	-31.8	1.7	-2.1%	3.9
COc1ccc(/C=C2\SC(=S)N(NS(=O)(=O)c3ccccc3)C2=O)c(OC)c1	-2.4	x	x	x	-1.2
COCCNC(=O)/C(C#N)=C\c1ccc(CNC(=O)C(=O)Nc2ccc(C)c(C)c2)o1	-2.2	x	-2.8	-19.0%	-0.2
CC1(C)OC(=O)C(=Cc2ccc(-c3ccc(S(N)(=O)=O)cc3)o2)C(=O)O1	-4.0	x	4.5	-5.6%	-6.8
CN(c1ccccn1)c1ncnc2[nH]ncc12	1.6	x	x	-0.8%	0.7
COc1ccc(C(C)(C)C)cc1NC(=O)COC(=O)c1cnc(C)cn1	1.6	-47.5	1.6	2.5%	1.5	Arbovirus anti repeat=1.3
Cc1ccc(S(=O)(=O)N(C)C)cc1NC(=O)[C@H](Cc1ccccc1)N1C(=O)c2ccccc2C1=O	1.1	-28.7	7.3	-6.1%	4.0
CN(c1ccccc1C(=O)Nc1ccc(S(=O)(=O)N2CCOCC2)cc1)S(C)(=O)=O	2.7	-11.7	1.4	-3.5%	2.2
CC(C)c1ccc(NC(=O)COc2nncc3ccccc23)cc1	-1.9	-40.4	1.4	-7.2%	-1.8
O=C(CC1S/C(=N/N=C/c2c[nH]c3ccccc23)NC1=O)Nc1ccccc1 (configuration not stated)	-1.3	-23.9	-3.0	11.7%	-1.6
COc1ccccc1N(C)C(=O)c1cc(S(=O)(=O)N2CCCC2)cn1C	-0.2	x	x	x	0.2
CN(C)/N=C/c1ccc([N+](=O)[O-])cc1[N+](=O)[O-]	1.2	x	5.9	10.8%	-3.1
COc1cccc(CN2CCCC(N3CCc4ccccc4C3)C2)c1O (configuration not stated)	-4.9	x	x	x	1.3
O=C(c1ccc(CS(=O)c2ccccc2Cl)o1)N1CCCCCC1 (configuration not stated)	-1.6	x	x	x	1.5
Cc1cccc(N=C2NC(=O)/C(=C/c3cn(C)c4ccccc34)S2)c1	76.2	-9.1	-19.7	15.7%	-0.1
CSc1nc(N2CCN(c3ccccc3)CC2)cc(N2CCN(c3ccccc3)CC2)n1	-3.9	x	-19.9	x	-2.8
COc1ccc(-c2nc3ccccn3c2Cl)cc1	4.4	x	x	x	-0.4
COc1ccc(OCC(=O)Nc2cccc(-c3nc4ccccc4[nH]3)c2)cc1	74.8	-19.6	4.5	6.0%	1.3
CC(C)c1ccc(N(CC(=O)NCc2cccnc2)S(=O)(=O)c2ccccc2)cc1	0.1	x	x	x	1.6
CC(C(=O)N(C)C1CCS(=O)(=O)C1)N1C(=O)/C(=C/c2cccs2)SC1=S (configuration not stated)	3.5	x	x	x	15.6
Cc1ccc(S(=O)(=O)N2CCN(C(=O)COC(=O)c3c(C)noc3C)CC2)c(C)c1	-5.8	x	x	1.1%	-5.2
CCOc1ccc(NC(=S)NC(=O)c2c(Br)cnn2C)c([N+](=O)[O-])c1	0.4	-6.3	8.3	3.5%	2.3
O=C(Cn1cnc2c(nnn2Cc2ccccc2)c1=O)N1CCN(c2ccccc2)CC1	-4.3	-20.7	-20.9	2.4%	0.3
CCOCCCn1c(SCC(=O)/C(C#N)=C(\C)N)nc2ccccc2c1=O	1.6	-41.6	-1.2	7.0%	0.8
C=CCN1C(=O)/C(=C/C(=O)OC)S/C1=N\NC(=O)c1ccccc1	-9.8	x	x	5.6%	-6.4
COc1ccccc1C(=O)NC1CC2CCC(C1)N2Cc1ccccc1 (configuration not stated)	-31.1	x	x	x	2.3
CCOc1ccc(-c2nc(S(=O)(=O)c3ccccc3)c(N3CCOCC3)o2)cc1	-5.1	x	-9.2	-1.2%	0.4
O=C(COC(=O)c1cc(S(=O)(=O)NCc2ccccc2)ccc1O)NCc1ccccc1	-2.2	-25.6	5.6	x	-0.6
CCOc1ccc(C(=O)CCC(=O)Nc2cc(C)ccn2)cc1	3.0	x	x	x	-0.6
CC1CCCN(Cc2cnc(Cl)s2)C1 (configuration not stated)	-2.8	-46.7	0.0	-8.7%	-0.2
O=C1OC(/C=C/c2ccccc2)=NC/1=C/C=C/c1ccccc1	96.2	-20.9	19.3	7.2%	3.1
